Compound activity: PubChem, ICCB-Longwood Screening Facility, Harvard Medical School
HCMV NEC inh = inhibitors of HCMV UL50-UL53 interaction, biochemical, HTRF | actives 0.15% (n = 190,000) | AID 1918969, 2023 | HCMV UL50-UL53 nuclear egress complex (human cytomegalovirus) | inhibition, % (concentration not given with the values) | normalized percent inhibition;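 active means both replicates at 50% or more, plus weaker picks with an unusually low signal ratio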;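 further: stock transfer was 100 nL into about 20 µL; 0% = negative control wells and 100% = wells with untagged competitor protein; inactives centre near -12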
* hit, by the source's call; & = joins results of further samples. A portion of the library; count on the stated rates, not on these rows.

SMILES	HCMV NEC inh
O=C(O)CNC(=O)c1c(O)c2ccccc2n(Cc2ccccc2)c1=O	-7.2
O=C1Nc2ccc3ncsc3c2/C1=C/c1cnc[nH]1	-60.3
CCN1CCCC(N2CCN3CCCC3C2)C1 (centres undefined)	-12.7
C/C(O)=C(\C#N)C(=O)Nc1cc(Br)ccc1Br	-2.8&0.8
c1ccc(C2CNCc3ccccc32)cc1 (centres undefined)	4.5
CN1CC[C@@]23CCCCC2C1Cc1ccc(O)cc13 (some centres undefined)	-71.4
CCCCCCCC/C=C\CCCCCCCC(=O)Nc1ccccc1	-22.4&-22.4
CCCC[C@H]1C(=O)O[C@H](C)[C@H](NC(=O)c2cccc(NC=O)c2OC)C(=O)O[C@@H](C)[C@@H]1OC(=O)CC(C)C	14.9
Cc1ccc2c(c1)Cc1c(C(=O)NC3CCCCC3)nn(-c3ccc(Cl)cc3Cl)c1-2	2.3
C#CC(C)(O)CC (centres undefined)	-10.4

The last two compounds of the part before open the next one.
SMILES	HCMV NEC inh
Cc1ccc2c(c1)Cc1c(C(=O)NC3CCCCC3)nn(-c3ccc(Cl)cc3Cl)c1-2	2.3
C#CC(C)(O)CC (centres undefined)	-10.4
CC1(O)C[C@@]23C[C@@H](O)[C@@]4(O)[C@@H](C[C@H](O)C4(C)C)[C@](C)(O)[C@@H]2CCC1[C@H]3O (some centres undefined)	-9.0
N#CC(C#N)=Cc1ccc([N+](=O)[O-])c(O)c1	-16.6&-16.6&-93.7
CC(NC(=O)Oc1ccccc1)C(c1cccs1)N1CCOCC1 (centres undefined)	-6.6
NP(N)(=O)NC(=O)c1ccc(F)cc1	-1.3&-55.7
C1=C2CCCN[C@H]2[C@@H]2C[C@H]1[C@H]1CCCCN1C2	-1.2
NCC(CS(=O)(=O)O)c1ccc(Cl)cc1 (centres undefined)	-6.3
CC[N+](CC)(CCCNC1=CC(=O)C(NCCC[N+](CC)(CC)Cc2ccccc2)=CC1=O)Cc1ccccc1	-69.5
O=C(c1ccccc1)c1cc(Br)ccc1NC(=O)C1CC1	-11.1
c1ccc(NC2=NCCS2)cc1	7.3
CC(=O)N1CC[N+](C)(C)CC1	-1.6
COc1cc2c(cc1O)[C@@H]1Cc3ccc(OC)c(O)c3CN1CC2	-27.1
CCCCCCCCCCCCCCCC(=O)OC[C@H](COP(=O)([O-])OCC[N+](C)(C)C)OC(C)=O	-17.7
Clc1ccc(C2CC3CCC2N3)cn1 (centres undefined)	2.1
O=S(=O)(CC1CS1)c1ccc(Oc2ccccc2)cc1 (centres undefined)	-21.1
C[C@H](Cc1ccc(OCC(=O)O)cc1)NC[C@H](O)c1cccc(Cl)c1	-2.0
CC=C(C)C(=O)NC(c1ccccc1)C(O)C(=O)OC1C[C@@]2(O)C(OC(=O)c3ccccc3)[C@@H]3[C@]4(OC(C)=O)COC4CC(O)[C@@]3(C)C(=O)C(OC(C)=O)C(=C1C)C2(C)C (some centres undefined)	-9.6
CCCCC/C=C\C/C=C\C/C=C\C/C=C\CCCC(=O)NC[C@@H](C)O	-16.8&-16.8
CCCCC/C=C\C/C=C\C/C=C\C=C\[C@H](CCCC(=O)O)OO	-14.8
N#CC1=C(N)Oc2c(c(=O)oc3ccccc23)C1CCc1ccccc1 (centres undefined)	3.5
CC1C=CC=CCCC=CC=CC=CC=CC(OC2OC(C)C(O)C(N)C2O)CC2O[C@@](O)(CC(O)C(O)CCC(O)CC(O)CC(O)CC(=O)OC(C)C(C)C1O)CC(O)C2C(=O)O (some centres undefined)	-14.2
COc1ccc(CN2CCN(C)C(CCO)C2)c(OC)c1OC (centres undefined)	-15.1
C[n+]1noc(NC(=O)C(F)(F)F)c1-c1ccccc1	-8.2&-22.7
COC[C@H]1OC(=O)c2coc3c2[C@@]1(C)C1=C(C3=O)[C@@H]2CCC(=O)[C@@]2(C)C[C@H]1OC(C)=O	-57.1
CC1=C(O)C(=O)[C@@H]2O[C@@H]2C1=O	-15.6
CCCCCCCCCCCCCCCCOC[C@@H](O)COP(=O)([O-])OCC[N+](C)(C)C	3.7&3.7&-1.2
O=c1n(Cl)c(=O)n(Cl)c(=O)n1Cl	-44.0
CCCCCC=CCC=CCC=CCC=CCCCC(=O)Nc1ccc(O)cc1	-56.2
CNC(=O)c1cn(C)c2ccccc12	5.7
CC[C@@H]1/C=C/C=C/C[C@H](C)[C@@H](O)[C@](C)(O)C(=O)[C@H](C)[C@@H](O)[C@H](C)C(=O)[C@H](C)[C@@H](O)[C@H](C)/C=C/C(=O)O[C@H]2[C@@H](C)[C@@H](CC1)O[C@@]1(CC[C@@H](C)[C@@H](C[C@H](C)O)O1)[C@@H]2C	-2.7
CN1[C@@H]2CC(O)C[C@H]1[C@@H]1O[C@@H]12 (some centres undefined)	3.6&21.4

As entered above.
For HCMV NEC inh, CCCCCCCCCCCCCCCCOC[C@@H](O)COP(=O)([O-])OCC[N+](C)(C)C shows 3.7&3.7&-1.2
For HCMV NEC inh, COC[C@H]1OC(=O)c2coc3c2[C@@]1(C)C1=C(C3=O)[C@@H]2CCC(=O)[C@@]2(C)C[C@H]1OC(C)=O shows -57.1
For HCMV NEC inh, CN1[C@@H]2CC(O)C[C@H]1[C@@H]1O[C@@H]12 (some centres undefined) shows 3.6&21.4
For HCMV NEC inh, CC1=C(O)C(=O)[C@@H]2O[C@@H]2C1=O shows -15.6
For HCMV NEC inh, O=c1n(Cl)c(=O)n(Cl)c(=O)n1Cl shows -44.0
For HCMV NEC inh, CNC(=O)c1cn(C)c2ccccc12 shows 5.7
For HCMV NEC inh, CC[C@@H]1/C=C/C=C/C[C@H](C)[C@@H](O)[C@](C)(O)C(=O)[C@H](C)[C@@H](O)[C@H](C)C(=O)[C@H](C)[C@@H](O)[C@H](C)/C=C/C(=O)O[C@H]2[C@@H](C)[C@@H](CC1)O[C@@]1(CC[C@@H](C)[C@@H](C[C@H](C)O)O1)[C@@H]2C shows -2.7

Additional results follow:
SMILES	HCMV NEC inh
CNCCCCCCN(C)N(O)N=O	-5.3&-5.3
CCCCC/C=C\C=C\[C@H](CCCCCCCC(=O)O)OO	-7.4
CCC1C=CC=CCC(C)C(O)[C@@](C)(O)C(=O)C(C)[C@@H](O)C(C)C(=O)C(C)C(O)C(C)C=CC(=O)OC2C(C)[C@]3(CCC(C)C(CC(C)O)O3)OC(CC1)[C@H]2C (some centres undefined)	-14.2
Cc1ccc(-n2nccn2)c(C(=O)N2CCN(c3nc4cc(Cl)ccc4o3)CCC2C)c1 (centres undefined)	2.8
CC(C)(C)[C@@]1(O)C[C@@H]2OC(=O)C[C@@]23C(=O)O[C@H]2OC(=O)C(O)C213 (some centres undefined)	-5.4
CCC(Oc1ccc(Cl)cc1)C(=O)OC1CC2CCC(C1)N2C (centres undefined)	-3.4
CC(=Cc1csc(C)n1)C1CC2OC2CCCC(C)C(O)C(C)C(=O)C(C)(C)C(O)CC(=O)O1 (centres undefined)	-5.0
O=C1C=CC[C@@H]2[C@@H]3CCCN4CCC[C@@H](CN12)[C@@H]34	6.8
Cn1cc(C(=O)Cc2ccccc2)c2ccccc21	10.0&-2.7
C[C@H](N)Cn1ccc2cc(F)c(Cl)cc21	-11.5
O=C1Nc2cc(Cl)c(Cl)cc2N2CCNCC12 (centres undefined)	-2.9
CCN1C[C@]2(COC(=O)c3ccccc3N3C(=O)C[C@H](C)C3=O)CC[C@H](OC)[C@]34C2[C@H](OC)[C@](O)([C@H]13)[C@@]1(O)C[C@H](OC)[C@H]2C[C@@H]4[C@@H]1[C@H]2OC	7.9
CC(Cc1ccccc1)NCCC(c1ccccc1)c1ccccc1 (centres undefined) (tested in a mixture with another compound)	16.1
CCCCC/C=C\C/C=C\C/C=C\C/C=C\CCCC(=O)NCCc1c[nH]c2ccc(O)cc12	-8.3&-8.3
Cc1ccccc1NC1(C#N)CCCCC1	-2.7
CC1CC[C@@]2(OC1)O[C@H]1C[C@H]3[C@@H]4CC=C5CC(O[C@@H]6OC(CO)C(O[C@@H]7OC(C)C(O)C(O)C7O)C(O)C6O[C@@H]6OC(C)C(O)C(O)C6O)CC[C@]5(C)[C@@H]4CC[C@]3(C)[C@@H]1C2C (some centres undefined)	-4.9
CCCCCCC(C)(C)c1ccc([C@@H]2C[C@H](O)CC[C@H]2CCCO)c(O)c1	-20.8&-20.8
CCN1C[C@]2(C)CC[C@H](OC)[C@@]34C1[C@]1(OCO[C@@]15C[C@H](OC)[C@H]1C[C@]3(O)[C@@H]5[C@H]1OC)[C@@H](OC(C)=O)[C@H]24	-20.9
CCCCC/C=C\C/C=C\C/C=C\C/C=C\CCCC(=O)NCCS(=O)(=O)O	-18.4&-18.4
CC[C@@H](C)C(=O)O[C@H]1[C@H](O)[C@H]2[C@@H](CN3C[C@@H](C)CC[C@H]3[C@@]2(C)O)C2C[C@]34O[C@@]5(O)[C@@H](OC(=O)[C@](C)(O)CC)CC[C@@]3(C)[C@@H]5[C@@H](OC(C)=O)[C@@H](OC(C)=O)[C@H]4[C@@]21O (some centres undefined)	9.5

Compounds above with an aryl methoxy group (3):
SMILES	HCMV NEC inh
CCCC[C@H]1C(=O)O[C@H](C)[C@H](NC(=O)c2cccc(NC=O)c2OC)C(=O)O[C@@H](C)[C@@H]1OC(=O)CC(C)C	14.9
COc1cc2c(cc1O)[C@@H]1Cc3ccc(OC)c(O)c3CN1CC2	-27.1
COc1ccc(CN2CCN(C)C(CCO)C2)c(OC)c1OC (centres undefined)	-15.1

Other entries
SMILES	HCMV NEC inh
CCOP(=S)(OCC)Oc1nc(Cl)c(Cl)cc1Cl	1.8
CC[N+]1(C)CCCC(OC(=O)C(O)(c2ccccc2)c2ccccc2)C1 (centres undefined)	-13.3
CN1CCN(c2ccc(C(F)(F)F)cc2NO)CC1	-28.0
CC1=CC(=O)C2=C(C)C[C@H](O)[C@@H]3[C@H](OC(=O)[C@H]3C)[C@@H]12	-16.1
C[C@]12CC[C@H](O)C[C@H]1CC[C@@H]1[C@@H]2CC[C@]2(C)[C@@H](C3=CC(=O)OC3)CC[C@]12O	-30.5
CC(=O)O[C@H]1C[C@H](O[C@H]2[C@@H](O)C[C@H](O[C@H]3[C@@H](O)C[C@H](O[C@H]4CC[C@@]5(C)[C@H](CC[C@]6(C)[C@]5(C)C[C@@H](O)[C@]5(C)[C@@H](C7=CC(=O)OC7)CC[C@@]56O)C4)O[C@@H]3C)O[C@@H]2C)O[C@H](C)[C@H]1O[C@@H]1O[C@H](CO)[C@@H](O)[C@H](O)[C@H]1O	-5.9
CCCCC/C=C\C/C=C\C/C=C\C/C=C\CCCC(=O)NCCc1ccc(O)c(O)c1	-19.9&-19.9
CN1C2CCC1CC(OC(c1ccc(F)cc1)c1ccc(F)cc1)C2 (centres undefined)	-9.5
OC[C@H]1O[C@@H](n2cnc3cc(Cl)c(Cl)cc32)C(O)[C@H]1O (some centres undefined)	-5.3
CN1CCCCC1Cn1cc(C(=O)c2cc([N+](=O)[O-])ccc2I)c2ccccc21 (centres undefined)	-34.2&-40.3&-40.3
O=C(CCC/C=C\C[C@@H]1[C@@H](/C=C/[C@@H](O)COc2cccc(C(F)(F)F)c2)[C@H](O)C[C@@H]1O)NC(CO)CO	9.1&9.1
NC(CC(=O)O)C1CCCCC1 (centres undefined)	1.8
CC1OC(=O)C(C(C)C)NC(=O)C(C(C)C)OC(=O)C(C(C)C)NC(=O)C(C)OC(=O)C(C(C)C)NC(=O)C(C(C)C)OC(=O)C(C(C)C)NC(=O)C(C)OC(=O)C(C(C)C)NC(=O)C(C(C)C)OC(=O)C(C(C)C)NC1=O (centres undefined)	-1.3
CN1CCCC1c1cccnc1N (centres undefined)	5.8
Cn1cc(C(=O)N2CCOCC2)c2ccccc21	4.2
O[C@H]1[C@H](O)[C@@H](O)CN2CC[C@H](O)[C@H]12	-1.8&-13.4
O=C1NC(=O)c2c1c1c3ccccc3[nH]c1c1[nH]c3ccccc3c21	-6.4&-3.9
CC1CSC(Nc2cccc(C(F)(F)F)c2)=N1 (centres undefined)	-10.5
CCCCC/C=C\C/C=C\C/C=C\C/C=C\CCCC(=O)NCCF	-15.8&-15.8
Cc1[nH]cnc1CCN	-3.4
CCCCCCCCCCCC[N+](C)(C)CCOc1ccccc1	-12.7
